MT1-MMP act inh: MT1-MMP (human) activation inhibition | GFP/RFP ratio change, % at 20 µM | HT1080 RFP-PRO-GFP cells, GFP/RFP ratio fluorescence, overnight; percent of plate control window, DMSO zero | 0.061% of 360,000 active | P50281;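 active = GFP/RFP ratio change of at least 30% with cell ATP level not reduced by more than half and red fluorescence within 50% of control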; note: strong numbers were not always called active
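Material – HT1080 RFP-PRO-GFP cells · Control set – DMSO wells and RFP-L50D-GFP cells · Incubation – overnight cell settling, then overnight compound exposure, 37 °C, 5% CO2 · Compound dosing – single-point 20 µM compound, 1% DMSO · Read-out – GFP/RFP fluorescence ratio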
PABP polyA inh: PABP-poly(A) binding inhibition. P11940. PABP-poly(A) RNA binding, fluorescence polarization. inhibition, % at 35 µM. 1% of 290,000 active. AID 2014;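 active = 50% or more with normal probe brightness, or confirmed in later tests; inconclusive = above 50% with abnormal brightness, or retests that disagree; inactive = below 50% or failed in later tests; about a fifth of its hits are not listed in these tables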;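 note: calls also rest on retests at 20 µM and on dose response follow-up; controls were probe without protein and protein plus probe with vehicle; some compounds called inactive have numbers as strong as hits; many hits fall short of the cut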
Target sequence (P11940 whole entry, looked up): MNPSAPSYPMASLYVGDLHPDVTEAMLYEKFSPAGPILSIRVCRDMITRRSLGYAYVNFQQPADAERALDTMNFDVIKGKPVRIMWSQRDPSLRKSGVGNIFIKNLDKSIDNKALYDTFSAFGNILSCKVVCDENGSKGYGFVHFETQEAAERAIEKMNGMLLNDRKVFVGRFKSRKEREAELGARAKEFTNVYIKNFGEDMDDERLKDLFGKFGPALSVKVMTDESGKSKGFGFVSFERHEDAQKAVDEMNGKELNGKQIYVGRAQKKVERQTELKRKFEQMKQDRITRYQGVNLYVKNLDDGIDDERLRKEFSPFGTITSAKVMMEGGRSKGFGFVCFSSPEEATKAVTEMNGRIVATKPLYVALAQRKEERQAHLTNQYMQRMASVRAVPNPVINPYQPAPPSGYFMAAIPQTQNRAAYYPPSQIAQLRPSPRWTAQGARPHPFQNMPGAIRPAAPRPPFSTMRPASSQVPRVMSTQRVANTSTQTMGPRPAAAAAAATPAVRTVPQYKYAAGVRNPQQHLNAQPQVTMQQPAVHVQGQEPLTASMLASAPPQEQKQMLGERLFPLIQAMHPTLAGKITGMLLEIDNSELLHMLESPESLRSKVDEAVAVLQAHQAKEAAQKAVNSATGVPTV
CSC inhib: blocks cancer stem cells; 1.1% of 300,000 active; cancer stem cell-like cells viability, luminescence; inhibition, % at 7.5 µM;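 active = mean at 75% or more and at least half the replicates too; inconclusive = mean and replicates disagree; tested in HMLE shEcad cells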;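 note: 0% = median of negative and 100% = median of positive control wells; the first replicate is given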
Env fusion inh: blocks HIV Env-driven cell-cell fusion | HeLa-JRFL Env/CEM21 cell fusion, luciferase | inhibition, % at 12.3 µM | 1.1% of 360,000 active;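 active = mean replicate inhibition score of at least 50 and every replicate individually at or above 50; inconclusive = only one of the two criteria met; inactive = mean below 50 and not all replicates reaching 50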;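 note: 0% = plate neutral controls and 100% = maraviroc near 300 nM; one replicate is shown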
eIF4H FP inh: inhibitors of RNA binding by human eIF4H. Q15056. eIF4H fluorescence polarization binding assay. inhibition, % at 35 µM. 0.94% of 290,000 active;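 active = 50% or more with normal probe brightness, or confirmed in later tests; inconclusive = above 50% with abnormal brightness, or retests that disagree; inactive = below 50% or failed in later tests; about a fifth of its hits are not listed in these tables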;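 note: calls also rest on retests at 20 µM and on dose response follow-up; 0% = protein and probe with vehicle and 100% = probe without protein; strong numbers were not always called active; many hits fall short of the cut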
UUG fidelity: modulators of start codon recognition fidelity in yeast; S. cerevisiae UUG-firefly luciferase reporter, luminescence/redox ratio; activity score, % at 18.7 µM; 0.13% of 350,000 active;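 active = replicate mean at a twofold rise or more, about +100% in these data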;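 note: firefly luciferase made from a UUG start codon reports start codon fidelity; reporter light over untreated wells divided by growth signal over untreated wells; some hits fall short of that in this replicate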
Rce1 inhib: blocks yeast Ras-converting enzyme; Q03530; yeast membranes, quenched prenylated peptide cleavage fluorescence; 0.27% of 290,000 active; AID 2563; calls only;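 active = fall in fluorescence gain of 50% or more versus controls, with final raw signal at or below 3038400; inconclusive = same 50% fall but final raw signal above 3038400; inactive = fall in fluorescence gain under 50%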;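 note: plate controls were neutral control wells for no effect and wells lacking membranes for full effect; tested at 10 µM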
MT1-MMP act inh RFP: further read-out of MT1-MMP act inh, marked with its call; RFP signal change, %; measured here: RFP expression control read;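 0 = vehicle wells; hits needed this value within 50% of zero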
Active calls of the source: *; i = inactive; u = inconclusive; x = not tested or not shown. These rows are one share of the data. The share of hits here may be higher or lower than overall.

Each structure is followed by: MT1-MMP act inh	MT1-MMP act inh RFP	PABP polyA inh	CSC inhib	Env fusion inh	eIF4H FP inh	UUG fidelity	Rce1 inhib
> O=C(NCCOc1ccccc1)c1cc([N+](=O)[O-])ccc1N1CCOCC1
 : -7	-14	x	56	2	x	-15	x
> Cc1cc(C)c2c(=O)[nH]c(SCC(=O)N(C)C)nc2n1
 : 4	5	-2	-5	x	-2	-19	i
> CCCCNC(=O)NCC(=O)Nc1ccc(F)c(F)c1
 : 1	-1	7	-5	-117	-7	0	i
> CCn1c(=O)c(=O)[nH]c2cc(C(=O)NC3CC3)ccc21
 : 1	6	-7	-7	9	-2	38	i
> COc1cc(C(=O)NCCc2cn3ccccc3n2)cc(OC)c1OC
 : 8	7	13	-4	16	-14	-21	i
> CC(=O)NC1C(=O)N=C(SCC(=O)Nc2c(C)cccc2C)NC1=O (centres undefined)
 : 3	3	3	-25	6	-3	x	i
> CC(=O)c1ccc(S(=O)(=O)NCc2ccc(C(=O)N(C)CC(=O)Nc3cccc(F)c3)cc2)cc1
 : 2	-8	9	-5	6	-4	7	i
> Cc1[nH]c(C)c(S(=O)(=O)N2c3ccccc3CC2C)c1C(=O)N1CCCCC1 (centres undefined)
 : -1	4	x	1	9	x	6	i
> CNC(=S)NNC(=O)Cc1ccc(OC)cc1
 : 2	-1	-7	-2	-4	4	-21	i
> Cn1ncc([N+](=O)[O-])c1C(=O)Nc1ccn(Cc2ccccc2F)n1
 : -4	-1	11	-8	x	4	-9	i

(next part)
Each structure is followed by: MT1-MMP act inh	MT1-MMP act inh RFP	PABP polyA inh	CSC inhib	Env fusion inh	eIF4H FP inh	UUG fidelity	Rce1 inhib
> CCn1c(SCC(=O)c2ccc(Cl)cc2)nnc1-c1ccoc1C
 : 1	1	2	1	-22	9	-28	i
> C[C@@H]1CNC(=O)c2c(C(=O)NC3CCN(C(=O)OC(C)(C)C)CC3)ncn21
 : 3	4	x	x	-4	x	-7	x
> O=C(CNC(=O)c1ccco1)OCC(=O)c1ccc(Br)cc1
 : 1	6	8	-7	-10	-2	-24	i
> COC(=O)CCC(=O)OC1(C)C(=O)C2=CN(CCc3ccccn3)C(c3ccc(OC)cc3)=CC2=C(Br)C1=O (centres undefined)
 : 4	14	x	-10	x	x	8	i
> COc1ccc(NC(=O)CN2CCC(n3c(C)nc4cc(F)ccc43)CC2)c(OC)c1
 : -5	-3	0	-16	14	-2	-21	i
> O=C(CSC1=Nc2ccccc2C2=NC(c3ccccc3)C(=O)N12)NCC1CCCO1 (centres undefined)
 : 0	-4	-5	-12	x	-3	-18	i
> C=CCN1C=C2C(=O)C(C)(OC(=O)c3cnc4ccccc4n3)C(=O)C=C2C=C1/C=C/COC (centres undefined)
 : 5	0	x	-3	x	x	-13	i
> O=C(CC1NCCNC1=O)OCc1ccccc1 (centres undefined)
 : -2	4	3	-5	x	11	-9	i
> CCOC(=O)CNC(=O)CSc1nc2cccnc2n1CC
 : 1	6	23	x	-55	6	0	i
> Fc1cccc(NC(=S)NCCN2CCOCC2)c1
 : -9	2	-10	-6	-2	-1	-22	i

Arranged by the number under UUG fidelity (low to high): three of the compounds above
Molecule,UUG fidelity
O=C(CSC1=Nc2ccccc2C2=NC(c3ccccc3)C(=O)N12)NCC1CCCO1 (centres undefined),-18
O=C(CC1NCCNC1=O)OCc1ccccc1 (centres undefined),-9
COC(=O)CCC(=O)OC1(C)C(=O)C2=CN(CCc3ccccn3)C(c3ccc(OC)cc3)=CC2=C(Br)C1=O (centres undefined),8

New compounds follow:
Each structure is followed by: MT1-MMP act inh	MT1-MMP act inh RFP	PABP polyA inh	CSC inhib	Env fusion inh	eIF4H FP inh	UUG fidelity	Rce1 inhib
> Cc1ccccc1NC(=O)Cc1nc(COC(=O)CNS(=O)(=O)c2cccc(Br)c2)cs1
 : 0	2	2	17	1	8	-18	i
> CC1(C(=O)NS(=O)(=O)Cc2cccc(Cl)c2)CCN1C(=O)C/C=C/c1ccccc1 (centres undefined)
 : -4	-3	x	x	3	x	-6	x
> Cc1ccc(/C(O)=C2\C(=O)C(=O)N(c3cc(C)on3)C2c2cccc(Cl)c2)cc1 (centres undefined)
 : -2	3	-4	3	x	-7	-16	i
> Oc1cccc(C2c3[nH]c4ccccc4c3CCN2Cc2ccc3c(c2)CCO3)c1 (centres undefined)
 : -4	-4	7	64	-23	-2	x	i
> CCN(CC(=O)NCC1CCCO1)S(=O)(=O)c1ccc2ccccc2c1 (centres undefined)
 : 1	-2	11	4	2	5	21	x
> COc1c(S(=O)(=O)N2CCN(C(=O)c3ccco3)CC2)ccc(Cl)c1Cl
 : 0	-3	2	-7	-3	10	14	i
> O=C(NCC1CCCO1)c1cc2ccccc2cc1O (centres undefined)
 : 2	-3	x	-6	-44	x	-14	i
> O=C(O)c1ccc(OC2CSC2)cc1
 : 0	3	3	-7	x	21	-10	i
> NCCCCCc1cn([C@@H](CO)C(=O)NCCCCCCCCCCC(=O)N2CCNCC2)nn1
 : -1	5	x	-11	-141	x	10	x
> COc1cc(/C(C)=N/NC(=O)c2ccc(CSc3nncn3C)cc2)cc(OC)c1OC
 : 0	5	2	-4	-10	-7	x	i

Following part
Each structure is followed by: MT1-MMP act inh	MT1-MMP act inh RFP	PABP polyA inh	CSC inhib	Env fusion inh	eIF4H FP inh	UUG fidelity	Rce1 inhib
> COc1cc(NC(=O)CSc2nnnn2-c2ccccc2)cc(OC)c1OC
 : 6	3	-2	4	x	-6	-15	i
> O=c1c2ccccc2n2c(-c3cccc(Cl)c3)nnc2n1Cc1ccccc1
 : -2	-5	5	-12	4	8	x	i
> Cc1ccc2c(c1)N(CC(=O)O)C(=O)CO2
 : 2	2	2	-4	-13	-8	-3	i
> CC(/C=C/c1ccccc1)=N\Nc1nc2c(c(=O)[nH]c(=O)n2C)n1CCO
 : x	x	-11	-6	x	-6	x	i
> Oc1cc2c(cc1C(c1ccc(Cl)c(Cl)c1)N1CCCC1)OCO2 (centres undefined)
 : -1	-1	6	x	0	2	x	i
> COCCNC(=O)Cn1cnc2c(cnn2-c2ccc(OC)cc2)c1=O
 : -1	2	6	-6	-5	-18	x	i
> CCN(CC)CCCn1c2c(c(SCC(=O)Nc3cccc(C)c3C)nc1=O)CCC2
 : -3	0	x	-7	16	x	x	i
> COc1ccccc1NC(=O)CCc1nnc2ccc(N3CCCCC3)nn12
 : -2	0	7	-10	1	0	-13	i
> CCCN(CC(=O)Nc1ccccc1C)C(=O)CCCOc1ccc(Br)cc1
 : 1	-4	x	1	-12	x	4	x
> Cc1ccc(-n2[nH]c(C)c(/C=N/c3cccc(C)n3)c2=O)cc1
 : 2	4	-4	17	8	-4	-8	i

Additional compounds
Each structure is followed by: MT1-MMP act inh	MT1-MMP act inh RFP	PABP polyA inh	CSC inhib	Env fusion inh	eIF4H FP inh	UUG fidelity	Rce1 inhib
> Nc1ncnc2c1ncn2[C@@H]1O[C@H](CO)[C@@H](O)[C@H]1O
 : 4	7	10	0	32	-1	-14	i
> O=C(Nc1nnc(-c2cccs2)o1)c1ccc(S(=O)(=O)N2CCOCC2)cc1
 : -1	-1	10	26	0	5	x	x
> CC(=O)C1C(c2ccc(Cl)cc2)c2c(n[nH]c2C)CC1(C)O (centres undefined)
 : -2	-1	7	-2	14	-7	-9	i
> O=C(CCCC(=O)NC1CCCCC1)Nc1ccc([N+](=O)[O-])cc1
 : 0	-1	3	-10	15	4	-20	i
> O=C(Nc1nc(-c2ccccc2)cs1)C1CCCCN1S(=O)(=O)c1ccccc1 (centres undefined)
 : -17	-16	4	24	x	8	-14	i
> CC(Nc1cc(C)cc(C)c1)=[N+](C)CCNS(=O)(=O)c1ccc(Cl)cc1
 : -4	1	49	-8	61*	2	-9	i
> Cc1nn(C(=O)CCC(=O)NCCc2ccccc2)c2ccccc12
 : -2	1	12	x	8	-3	-20	i
> Cc1c(C(=O)OCC(=O)NCC2CCCO2)cccc1[N+](=O)[O-] (centres undefined)
 : 4	3	-77	1	-2	8	x	i
> Cc1ccccc1-n1c(SCc2c(C)noc2C)nnc1-c1cccnc1
 : -28	4	u	-2	x	u	0	i
> COc1ccc(CCNC(=O)C2CCN(Cc3nc(-c4ccc(Cl)cc4)oc3C)CC2)cc1OC
 : 0	-1	x	x	5	x	-15	x

Next compounds.
Each structure is followed by: MT1-MMP act inh	MT1-MMP act inh RFP	PABP polyA inh	CSC inhib	Env fusion inh	eIF4H FP inh	UUG fidelity	Rce1 inhib
> CCOC(=O)COc1c(Br)cc(/C=C2\SC(=O)N(CC(=O)N3CCCC3)C2=O)cc1OC
 : 2	1	-10	-13	-28	-12	18	i
> N#CC1=C2SCN(Cc3ccco3)CN2C(=O)CC1c1cccc2ccccc12 (centres undefined)
 : -4	-2	6	-8	-29	6	x	i
> COc1ccc(Cl)cc1NC(=S)NCCc1ccc(S(N)(=O)=O)cc1
 : 2	2	-13	-5	7	-16	x	i
> COc1cccc(OCc2cc(C(=O)N3CCC(C(O)C(C)C)CC3)no2)c1 (centres undefined)
 : 3	-2	10	-7	-5	-7	-4	i
> Cc1ccc2[nH]c(O)c(N=Nc3ccccc3C)c2c1
 : -9	3	u	2	-6	u	-20	i
> CC(C)OCCCn1c(-c2ccco2)nc2nc3ccccc3nc21
 : -100	11	-18	8	-100	u	33	u
> CC(=O)c1c(N2CCN(c3cccc(Cl)c3)CC2)nc(=S)n(-c2ccccc2)c1C
 : -14	4	99*	6	x	84*	-29	i
> COc1ccc(N2C(=O)CC(Nc3cccc(C(C)=O)c3)C2=O)cc1OC (centres undefined)
 : 2	2	11	-14	x	0	-19	i
> Cn1nc(C(=O)NCc2ccccc2)cc1C(=O)NCc1ccccc1
 : 2	-2	-10	39	-2	2	-11	i
> CCCCN1CC(=O)N2[C@H]3c4cc(C)ccc4OC[C@@H]3[C@H](C(=O)OCC)[C@]2(C)C1=O
 : 0	3	x	3	23	x	-7	x

Next section.
Each structure is followed by: MT1-MMP act inh	MT1-MMP act inh RFP	PABP polyA inh	CSC inhib	Env fusion inh	eIF4H FP inh	UUG fidelity	Rce1 inhib
> COc1ccc(Cl)cc1NC(=O)C(C)N1CCN(C/C=C/c2ccccc2)CC1 (centres undefined)
 : 1	-7	-8	3	x	-3	x	i
> Cc1noc2ncnc(Oc3ccccc3)c12
 : -1	2	-6	-12	x	-3	-20	i
> CCCN(CCC)C(=O)C1CCN(c2ccc(S(=O)(=O)N3CCOCC3)cc2[N+](=O)[O-])CC1
 : 5	-1	-3	-2	x	2	8	i
> C=CCn1c(-c2cc(OC)c(OC)c(OC)c2)n[nH]c1=S
 : 4	4	3	-6	x	12	x	i
> O=C(CCSCc1ccccc1)Nc1ccc2c(c1)OCCO2
 : 2	1	0	6	28	4	x	i
> N#CCCN1CCN(S(=O)(=O)c2ccc(S(=O)(=O)NC3CCCCC3)cc2)CC1
 : -2	0	-17	-23	5	-15	-8	i
> Cc1ccc(NNC(=O)C(O)(c2cccc(C(F)(F)F)c2)c2cccc(C(F)(F)F)c2)cc1
 : -12	-12	4	99*	-31	8	-14	i
> Cn1c(=O)c2c(ncn2CC(=O)OCC(=O)Nc2ccc(Cl)cc2Cl)n(C)c1=O
 : 0	3	-6	-8	-8	-10	x	x
> Cc1ccc(NC(=O)CCc2nnc3ccc(N4CCC5(CC4)OCCO5)nn23)nc1
 : -11	-1	x	12	-6	x	-11	i
> Cc1csc(NC(=O)c2oc3ccccc3c2C)n1
 : -4	-1	x	-3	-88	x	-28	i
> Cc1cccc(C(C)C)c1-n1nnnc1-c1ccccc1
 : 3	3	-3	6	x	3	-8	i
